Source: PubChem BioAssay (National Center for Advancing Translational Sciences (NCATS))
Sfp PPTase inh – qHTS Assay for Inhibitors of Bacillus subtilis Sfp phosphopantetheinyl transferase (PPTase) | 4'-phosphopantetheinyl transferase ffp (Bacillus subtilis), Q9F4F7 | hit rate 3.5% among 310,000 | Potency, µM, for inactives: max response, negative = inhibition, most hits filed as inhibitors | Biochemical Sfp PPTase activity, qHTS; active = well fitted inhibition curve with a large enough effect; inconclusive = small, poorly fitted or top-dose-only effect, or another doubt; inactive = no such curve, though single readings can be large or run the other way;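 note: the enzyme is Sfp with the accession as filed and its product quenches rhodamine fluorescence; potency is the fitted concentration of half-maximal effect; 0% = enzyme reaction without inhibitor and -100% = no enzyme wells; top concentration of the series not given in the record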
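Buffer: 50 mM Hepes-Na pH 7.6, 10 mM MgCl2, 0.01% Nonidet P-40, 0.01% BSA. Enzyme 15 nM, pre-exposed to compound 15 min; substrates then added and fluorescence change tracked over 30 min.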
TRPML1 inh – qHTS for Inhibitors of the Human Mucolipin Transient Receptor Potential 1 (TRPML1). Mucolipin-1 (Homo sapiens), Q9GZU1. TRPML1-inducible cells, Ca2+ dye fluorescence, FDSS; hits give low values; inhibition of EC80 agonist-evoked calcium signal. activity change, negative = inhibition, % (concentration not given with the values). hit rate 0.02% among 390,000; in the data active means activity change below about -50%; inconclusive means about -30% to -50%; inactive means above about -30%;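 note: stimulus is agonist 54-4 at its EC80 concentration; % is set by controls: 0 for no effect and ±100 for the full control effect; compound concentration not given in the record; the text of the record puts the active cut at -80%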
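TRPML1-DL cells, Tet-induced overnight (~16 h, 37 °C) at 1,500 cells/well, were loaded with Ca8 no-wash dye plus quencher for 45-90 min at room temperature. Compounds were pinned during FDSS kinetic reading; agonist 54-4 at EC80 (4 uM final) then added.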
TRPV1 potentiator – HTS Assay for Compounds that Act as Potentiators of the Vanilloid Receptor 1. AID 540277, 2011. TRPV1-expressing cells, Fluo-8 calcium influx, capsaicin EC20 potentiation; host cell line not named in the record; control for the full effect not named in the record. potentiation, % at 8.33 µM. hit rate 0.02% among 320,000; active means potentiation above 80%; inconclusive means 30% to 80%; inactive means below 30%; note: 0% is about no effect
Target sequence (Q8NER1 whole entry, looked up): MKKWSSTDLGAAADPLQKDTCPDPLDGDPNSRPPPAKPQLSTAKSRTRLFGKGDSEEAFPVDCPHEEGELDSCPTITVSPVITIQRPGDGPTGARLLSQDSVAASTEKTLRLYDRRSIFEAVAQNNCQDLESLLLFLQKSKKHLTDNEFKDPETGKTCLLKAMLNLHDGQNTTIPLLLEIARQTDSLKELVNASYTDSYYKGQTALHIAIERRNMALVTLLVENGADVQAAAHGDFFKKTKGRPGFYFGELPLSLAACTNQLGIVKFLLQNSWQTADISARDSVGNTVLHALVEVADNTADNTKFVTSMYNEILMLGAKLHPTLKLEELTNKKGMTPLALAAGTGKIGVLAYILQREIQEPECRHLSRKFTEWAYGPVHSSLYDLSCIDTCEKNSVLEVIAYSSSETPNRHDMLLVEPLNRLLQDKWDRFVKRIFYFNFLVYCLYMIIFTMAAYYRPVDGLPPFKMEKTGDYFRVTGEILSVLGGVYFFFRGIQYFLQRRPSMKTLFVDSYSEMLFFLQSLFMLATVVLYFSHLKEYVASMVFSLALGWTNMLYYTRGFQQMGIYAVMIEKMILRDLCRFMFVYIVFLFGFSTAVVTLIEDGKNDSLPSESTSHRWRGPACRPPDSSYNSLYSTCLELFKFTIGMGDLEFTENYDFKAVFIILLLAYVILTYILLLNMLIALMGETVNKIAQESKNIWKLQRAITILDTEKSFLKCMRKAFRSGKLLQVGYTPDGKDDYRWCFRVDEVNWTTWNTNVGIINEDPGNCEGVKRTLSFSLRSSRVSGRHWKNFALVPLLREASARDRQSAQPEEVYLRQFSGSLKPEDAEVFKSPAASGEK
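Cells expressing TRPV1 were dye-loaded with Fluo-8 and read kinetically: 10 s baseline, 3 min after compound (agonist portion), then 2 min after EC20 capsaicin (allosteric enhancer portion). Calcium-bound dye fluorescence at 480/520 nm.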
ClpP mod – qHTS Assay for Activators of ClpP. ATP-dependent Clp protease proteolytic subunit (Bacillus subtilis (strain 168)), P80244. purified B. subtilis ClpP, FRET peptide cleavage, 20 min. Potency, µM (titrated, usually from 57.5 µM), for the others: at the top dose activity change, negative = active. hit rate 1.9% among 340,000; active = well fitted falling curve with a large enough effect; inconclusive = small, poorly fitted or top-dose-only effect; inactive = no such curve, though single readings can be large or run the other way; note: potency is the fitted concentration of half-maximal effect; the source files actives as falling curves though it sought activators and does not explain the sign; nearly all actives have a fitted effect of over 65% in size; many hits overshoot -100%
Target sequence (P80244 whole entry, looked up): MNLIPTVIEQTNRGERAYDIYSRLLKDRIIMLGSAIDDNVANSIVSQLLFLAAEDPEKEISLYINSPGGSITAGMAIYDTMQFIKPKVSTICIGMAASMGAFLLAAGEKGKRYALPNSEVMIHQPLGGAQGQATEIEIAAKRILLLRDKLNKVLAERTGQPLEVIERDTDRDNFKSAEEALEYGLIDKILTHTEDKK
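Purified B. subtilis ClpP, 10 microg/mL final in Tris/HCl pH8 with KCl, BSA, glycerol and Tween-20, cleaved an Abz/nitrotyrosine-quenched decapeptide. Fluorescence (ex 320, em 430) was read at 0 and 20 min at room temperature. Delta was normalized to 5.8 microM ADEP and DMSO/no-enzyme controls.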
Menin-MLL FL inh – qHTS Assay for Inhibitors Targeting the Menin-MLL Interaction in MLL Related Leukemias: Competition With Fluorescein Labeled MLL-derived Peptide. Fluorescence polarization, fluorescein-MLL peptide displacement from menin. 290,000 tested, under 10 active. FP activity change, % at 61.4 µM; inconclusive = falling polarisation curve, or a change in total fluorescence; inactive = total fluorescence flat and polarisation flat or rising; no compound was filed as active; the % refers to the polarisation; negative = inhibition;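 note: % of control where 0% means no effect; inhibitors lower the polarisation; unlabelled MLL peptide was the positive control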
gsp agonist – qHTS for Agonist of gsp, the Etiologic Mutation Responsible for Fibrous Dysplasia/McCune-Albright Syndrome: qHTS; gsp mutant cells, cAMP HTRF, 30 min; control for the full effect not named in the record; Potency, µM (doses to about 76.9 µM), without a hit: at the top dose activation (cAMP increase), hits mostly activators; hit rate 0.13% among 340,000; active = well fitted activation curve with a large enough effect; inconclusive = small, poorly fitted or top-dose-only effect, or another doubt; inactive = no such curve, though single readings can be large or run the other way; cell line not stated here;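 note: phosphodiesterase inhibitor Ro 20-1724 added with compounds to block cAMP breakdown; potency is the fitted concentration of half-maximal effect; nearly all actives have a fitted effect of over 60% in size; about a fifth of the inactives were tested at one dose only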
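Cells in DMEM/10% FBS with G418 were pretreated with compounds in DMSO plus […] (300 uM stock) for 30 min at 37C. cAMP was measured by HTRF (cAMP-d2 plus anti-cAMP antibody-K) after 30 min at room temperature.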
gsp antag – qHTS for Antagonists of gsp, the Etiologic Mutation Responsible for Fibrous Dysplasia/McCune-Albright Syndrome: qHTS; gsp-mutant cells, cAMP HTRF, 30 min; control for the full effect not named in the record; hit rate 0.4% among 340,000; Potency, µM (doses to about 76.9 µM), for the others: at the highest dose activity change, negative = inhibition, most hits filed as inhibitors; active = falling curve of any shape with a large fitted effect; inconclusive = falling curve, mostly with a smaller effect; inactive = flat or rising curve; cell line not stated here;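 note: intracellular cAMP measured with PDE inhibitor Ro 20-1724 present during compound exposure; potency is the fitted concentration of half-maximal effect; % is set by controls: 0 for no effect and ±100 for the full control effect; nearly all actives have a fitted effect of over 65% in size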
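Cells, 2000/well, grown 16–24 h in DMEM 10% FBS with 0.5 mg/ml G418, then compounds plus […] (300 uM addition stock), 30 min at 37C. cAMP read by HTRF (cAMP-d2 and anti-cAMP antibody-K in lysis buffer) after 30 min RT.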
The depositor's hits bear a star; [ ] = dose if it differs, or a comment.

`COc1ccccc1N1CCN(C(=O)[C@@H]2CCCN2C2=NS(=O)(=O)c3ccccc32)CC1` gave TRPML1 inh 5, ClpP mod 0.6% and gsp agonist -23%.
`Cc1cc(OCC(=O)NCCc2ccc(S(N)(=O)=O)cc2)c2c(C)c(C)c(=O)oc2c1` gave Sfp PPTase inh 9%, TRPML1 inh 7, TRPV1 potentiator 6, gsp agonist inconclusive and gsp antag 3%.
`O=C(CN1C(=O)COc2ccc(Cl)cc21)Nc1ccccn1` gave Sfp PPTase inh 27%, TRPML1 inh 0, TRPV1 potentiator 2, ClpP mod -1.2%, Menin-MLL FL inh 1.6, gsp agonist 8%[15.4 µM] and gsp antag 6%.
O=C(COc1ccc(F)cc1)N/N=C/c1cccc2cccnc12 was read as TRPML1 inh -5, ClpP mod 1.3%, gsp agonist 16% and gsp antag 1%.
`COc1ccc(-n2nc3c(c2NC(=O)C(C)Oc2ccccc2)CS(=O)C3)cc1` (configuration not stated) gave Sfp PPTase inh 13%, TRPML1 inh -9, TRPV1 potentiator 13, ClpP mod 32µM*, gsp agonist 4% and gsp antag -3%.
For COC(=O)NC1CCC(NC(=O)OC)CC1 (configuration not stated) the results were Sfp PPTase inh 4%, TRPML1 inh 9, TRPV1 potentiator 0, ClpP mod -0.9%, Menin-MLL FL inh 2.1, gsp agonist 2% and gsp antag -8%.
For Cc1cccc(NC(=O)CSc2nnc(-c3ccncc3)n2CC2CCCO2)c1 (configuration not stated) the results were Sfp PPTase inh 13%, TRPML1 inh -7, TRPV1 potentiator 18, Menin-MLL FL inh -2.4, gsp agonist 3%[15.4 µM] and gsp antag 2%.
Screening Cc1cc(C)c(C)c(S(=O)(=O)N2CCC(C(=O)Nc3ccncc3)CC2)c1C returned Sfp PPTase inh 6%, TRPML1 inh 5, TRPV1 potentiator -14, gsp agonist -9%[15.4 µM] and gsp antag -12%.
Screening c1ccc(Cc2nc3ccccc3s2)cc1 returned TRPML1 inh -1, gsp agonist -31%[inhibitor] and gsp antag 2%.
Cc1ccn(CC(=O)N2CCCC(N3CCN(c4cccc(C(F)(F)F)c4)CC3)C2)n1 (configuration not stated) was read as TRPML1 inh -4, ClpP mod 1.7% and gsp agonist -92%[inhibitor].
For CC(=O)/C(=N\Nc1ccc(Cl)cc1Cl)Sc1cccc2cccnc12 the results were Sfp PPTase inh -24%, TRPML1 inh -6, TRPV1 potentiator -2, ClpP mod 0.8%, Menin-MLL FL inh 0.7, gsp agonist 12% and gsp antag -18%.
Cc1cc2oc(C(=O)Nc3nonc3C)c(C)c2cc1Cl was read as Sfp PPTase inh -15%, TRPML1 inh 1, TRPV1 potentiator 3, ClpP mod -1.2%, gsp agonist -21% and gsp antag -4%.
`CC(C)N1CCN(Cc2cccc3nonc23)CC1CCO` (configuration not stated) gave Sfp PPTase inh 7%, TRPML1 inh -17, TRPV1 potentiator inconclusive, ClpP mod 0.7%, Menin-MLL FL inh 1.4, gsp agonist 2% and gsp antag 4%.
For O=C(OC1CCOC1=O)c1ccc(S(=O)(=O)N2CCCCCC2)cc1 (configuration not stated) the results were Sfp PPTase inh 15%, TRPML1 inh 20, TRPV1 potentiator -23, ClpP mod -3.7%, Menin-MLL FL inh 5.6, gsp agonist 6% and gsp antag 3%.
C/C(=N\NC(=O)C1CC1c1ccccc1)c1cccs1 (configuration not stated) was read as Sfp PPTase inh 18%, TRPML1 inh 31, TRPV1 potentiator -11, ClpP mod -4.1%, Menin-MLL FL inh 2.4, gsp agonist 8% and gsp antag -10%.

3 structures out of the list, ordered by number of heavy atoms, ascending:
Screening c1ccc(Cc2nc3ccccc3s2)cc1 returned TRPML1 inh -1, gsp agonist -31%[inhibitor] and gsp antag 2%.
O=C(COc1ccc(F)cc1)N/N=C/c1cccc2cccnc12 was read as TRPML1 inh -5, ClpP mod 1.3%, gsp agonist 16% and gsp antag 1%.
`COc1ccccc1N1CCN(C(=O)[C@@H]2CCCN2C2=NS(=O)(=O)c3ccccc32)CC1` gave TRPML1 inh 5, ClpP mod 0.6% and gsp agonist -23%.

(list continues)
`CCCN(CC(=O)Nc1ccccc1OC)C(=O)c1ccc(COc2ccccc2)o1` gave TRPML1 inh 20, TRPV1 potentiator 1, ClpP mod 0.8%, gsp agonist 0% and gsp antag -14%.
CCN(CC(=O)NCC(=O)Nc1cccc(C)c1C)Cc1ccccc1 was read as Sfp PPTase inh 6%, TRPML1 inh 12, TRPV1 potentiator 20, ClpP mod -1.6%, Menin-MLL FL inh 3.1, gsp agonist 23% and gsp antag -2%.
For O=C(CCC1CCCN(C(=O)c2cc3ccccc3o2)C1)NCc1ccc(F)c(F)c1 (configuration not stated) the results were TRPML1 inh -2, ClpP mod -1.2%, gsp agonist -8% and gsp antag -25%.
`Cc1n[nH]c(=S)n1/N=C/c1c(O)ccc2ccccc12` gave Sfp PPTase inh 63µM*, TRPML1 inh -5, TRPV1 potentiator -25, Menin-MLL FL inh -0.2, gsp agonist -60%[inhibitor] and gsp antag -7%.
`CCN(CC)C(=O)Cn1nc(C)c2ccccc2c1=O` gave Sfp PPTase inh 24%, TRPML1 inh 0, TRPV1 potentiator 13, ClpP mod -7.8%, Menin-MLL FL inh -1.3, gsp agonist inconclusive and gsp antag 3%.
Screening CCc1nnc(NS(=O)(=O)c2ccc(NC(=S)Nc3ccc(F)cc3)cc2)s1 returned Sfp PPTase inh 3%, TRPML1 inh -21, TRPV1 potentiator inconclusive, ClpP mod -5.1%, gsp agonist 16% and gsp antag 11%.
Screening O=C(CNC(=O)c1ccc(Cl)c([N+](=O)[O-])c1)NCC1CCCO1 (configuration not stated) returned Sfp PPTase inh 14%, TRPML1 inh -16, TRPV1 potentiator -3, Menin-MLL FL inh -1.9, gsp agonist -9% and gsp antag -13%.
For NS(=O)(=O)c1ccc(CCNS(=O)(=O)c2ccc3c(c2)NC(=O)CO3)cc1 the results were Sfp PPTase inh 4%, TRPML1 inh 2, TRPV1 potentiator -11, ClpP mod -0.7%, gsp agonist inconclusive and gsp antag -3%.
`CSCC(=O)N1CCCC(CNC(=O)c2ccc(-c3ccccc3)cc2)C1` (configuration not stated) gave Sfp PPTase inh -14%, TRPML1 inh 0, TRPV1 potentiator -3, Menin-MLL FL inh 1.9, gsp agonist -3%[15.4 µM] and gsp antag -5%.
For COc1cccc(CC(=O)Nc2cc(C(F)(F)F)ccc2N2CCCC2)c1 the results were Sfp PPTase inh 17%, TRPML1 inh 12, TRPV1 potentiator -6, ClpP mod 6.7%, gsp agonist 7% and gsp antag 10%.
`CCOC(=O)CCCCC(=O)c1[nH]c(=O)[nH]c1CSCCO` gave Sfp PPTase inh -4%, TRPML1 inh 8, TRPV1 potentiator -1, ClpP mod 0.5%, Menin-MLL FL inh -0.9, gsp agonist -26% and gsp antag 0%.
For Cn1c(=O)cc(SCC(=O)NCCCN2CCN(c3ccccc3F)CC2)c2ccccc21 the results were Sfp PPTase inh 8%, TRPML1 inh -9, TRPV1 potentiator -5, ClpP mod -27%, Menin-MLL FL inh 1.9, gsp agonist inconclusive and gsp antag -7%.
`Cc1nc2cc(N)ccc2n1-c1ccccc1` gave Sfp PPTase inh -1%, TRPML1 inh 4, TRPV1 potentiator 0, Menin-MLL FL inh 0.6, gsp agonist 0%[15.4 µM] and gsp antag -11%.
Screening Cc1ccc(-c2nc(C(F)(F)F)cc(=O)[nH]2)cc1 returned Sfp PPTase inh 22%, TRPML1 inh -9, TRPV1 potentiator 3, ClpP mod 2.0%, Menin-MLL FL inh 2.7, gsp agonist -22% and gsp antag -12%.
`CN(C)c1ncnc2c1NC1=C(S2)C(=NCCCC(=O)O)CC(C)(C)C1` gave Sfp PPTase inh 22µM*, TRPML1 inh -9, TRPV1 potentiator 4, ClpP mod 1.3%, Menin-MLL FL inh inconclusive, gsp agonist -4% and gsp antag -8%.
`Cc1cc(=O)[nH]c(N/N=C/c2c(C)nn(-c3ccc(F)cc3)c2Cl)n1` gave Sfp PPTase inh -6%, TRPML1 inh -8, TRPV1 potentiator 3, Menin-MLL FL inh -3.9, gsp agonist -8%[15.4 µM] and gsp antag -33%.
`CC(=O)NCCCNc1ccc([N+](=O)[O-])cc1` gave Sfp PPTase inh -8%, TRPML1 inh 9, TRPV1 potentiator 4, ClpP mod 3.3%, Menin-MLL FL inh 4.6, gsp agonist -31%[inhibitor] and gsp antag -6%.
`COc1ccc(C(=O)O/N=C2\CCCc3nonc32)cc1` gave Sfp PPTase inh 1%, TRPML1 inh -3, TRPV1 potentiator -4, ClpP mod 70%, Menin-MLL FL inh 2.8, gsp agonist -15% and gsp antag -10%.
For COc1ccc(C)cc1NC(=O)C1CCCN1C(=O)OCc1ccccc1 (configuration not stated) the results were Sfp PPTase inh 0%, TRPML1 inh 13, TRPV1 potentiator -2, ClpP mod 1.2%, Menin-MLL FL inh 5.0, gsp agonist -36%[inhibitor] and gsp antag -4%.
N#Cc1ccc(CN2CCN(C(=O)C3CC(=O)N(c4ccccc4F)C3)CC2)cc1 (configuration not stated) was read as TRPML1 inh 14, ClpP mod -0.4%, gsp agonist 12% and gsp antag -5%.
O=C(c1ccc2c3c(cccc13)CC2)C1CCCN(Cc2ccccn2)C1 (configuration not stated) was read as Sfp PPTase inh -16%, TRPML1 inh -11, TRPV1 potentiator -11, Menin-MLL FL inh -5.1, gsp agonist 13%[15.4 µM] and gsp antag -7%.
Screening CCCCNC(=O)c1ccccc1NC(=O)CCSc1ccccc1 returned Sfp PPTase inh 11%, TRPML1 inh -2, TRPV1 potentiator -7, ClpP mod -6.8%, Menin-MLL FL inh 0.4, gsp agonist -40%[inhibitor] and gsp antag -2%.
